FGF22 binding – shifts melting point of recombinant human FGF22 | recombinant FGF22 thermal shift, SYPRO orange fluorescence; percent of sucrose octasulfate shift, DMSO zero | calls only at 9.99 µM | 340,000 tested, 1.5% active | AID 651658;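 active means melting point raised past a set limit in the mean and every replicate; inconclusive means no clear call; three in four hits are not shown here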
Target sequence (Q9HCT0 whole entry, looked up): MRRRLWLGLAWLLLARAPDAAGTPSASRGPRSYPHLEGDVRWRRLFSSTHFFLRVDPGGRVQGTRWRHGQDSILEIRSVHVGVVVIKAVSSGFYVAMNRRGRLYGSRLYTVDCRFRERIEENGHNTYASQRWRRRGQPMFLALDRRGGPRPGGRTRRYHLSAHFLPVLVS
MLL AF4-AF9 inh – MLL-AF4/AF9 protein interaction inhibition. P42568. AlphaScreen, biotin-AF4 peptide binding to FLAG-AF9. inhibition, % at 10 µM. 350,000 tested, 0.47% active;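 active means every replicate reaching a set inhibition limit, whatever the replicate mean, cut at about 25% in these data; inconclusive means mean inhibition reaches that limit but some replicates miss it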;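 further: 0% = plate neutral control median and 100% = total signal loss; the record names both 10 and 1 µM as test concentration; the first replicate is given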
Target sequence (P42568 whole entry, looked up): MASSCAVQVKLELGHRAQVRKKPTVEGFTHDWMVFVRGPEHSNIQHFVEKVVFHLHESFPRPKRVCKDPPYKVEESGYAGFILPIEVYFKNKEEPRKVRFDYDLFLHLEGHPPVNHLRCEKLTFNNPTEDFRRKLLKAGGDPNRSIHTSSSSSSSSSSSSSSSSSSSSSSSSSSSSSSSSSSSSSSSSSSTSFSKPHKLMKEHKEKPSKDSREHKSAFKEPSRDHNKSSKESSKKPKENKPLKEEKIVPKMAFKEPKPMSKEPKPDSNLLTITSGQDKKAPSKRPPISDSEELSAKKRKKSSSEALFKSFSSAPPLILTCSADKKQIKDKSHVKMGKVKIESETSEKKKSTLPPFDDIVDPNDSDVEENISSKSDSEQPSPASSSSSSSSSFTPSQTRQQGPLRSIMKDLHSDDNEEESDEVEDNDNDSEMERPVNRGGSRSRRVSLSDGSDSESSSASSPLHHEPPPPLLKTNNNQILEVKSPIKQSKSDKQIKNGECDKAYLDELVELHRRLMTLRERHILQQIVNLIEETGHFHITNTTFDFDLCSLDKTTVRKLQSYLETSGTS
Ecoli rRNA inh – selective bacterial rRNA inhibition in E. coli. E. coli WT GFP vs humanized-ribosome RFP mutants, fluorescence, 24 h; stronger effect = lower value; DMSO median 0, no signal -100. GFP signal change (wild-type ribosome), % (test concentration not listed). 350,000 tested, 1.6% active;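 active means significant combined selectivity score with lowered wild-type GFP, culture density cut under 30%, mutant RFP and density less affected; inactive means any of these conditions unmet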; further: one replicate is shown; some compounds called inactive have numbers as strong as hits
Ecoli rRNA inh OD600 – recorded beside Ecoli rRNA inh, whose call it bears; OD600 change, %; measured here: OD600 growth;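 optical density of the mix in the first replicate; 0 = DMSO median and -100 = no signal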
Ecoli rRNA inh RFP – second read-out of Ecoli rRNA inh, no call of its own (marks repeat the call); RFP signal change, %; measured here: RFP humanized mutant strains;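 first replicate; 0 = DMSO median and -100 = no signal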
Active calls of the source: *; i = inactive; ? = inconclusive; + = active, no number; & = joins results of further samples. This is a subset; count on the stated rates, not on these rows.

Every second line gives: FGF22 binding, MLL AF4-AF9 inh, Ecoli rRNA inh, Ecoli rRNA inh OD600, Ecoli rRNA inh RFP
O=C(Nc1ccn(CCCN2CCN(Cc3cccc4ccccc34)CC2)c(=O)n1)OCc1ccccc1
 : i, 14.9, -58.2, -83.7, -17.5
CCS(=O)(=O)N1CC2(C1)[C@@H](c1ccccc1)[C@H](CO)N2Cc1ccccn1
 : i, -1.7, 4.4, 19.2, -0.4
C[C@H]1CN([C@@H](C)CO)C(=O)CCCn2nncc2CO[C@H]1CN(C)Cc1ccc2c(c1)OCCN2C
 : i, 2.1, -0.3, 3.2, 0.6
CCC(=O)N(C)C[C@@H]1Oc2cc(-c3ccccc3C)ccc2S(=O)(=O)N([C@@H](C)CO)C[C@@H]1C
 : i, 2.8, -4.0, -26.5, 1.8
CCCC#Cc1cnc2c(c1)C(=O)N([C@@H](C)CO)C[C@@H](C)[C@H](CN(C)Cc1cccnc1)O2
 : i, 2.0, -0.5, -2.8, 0.3
COCC(=O)Nc1ccc2c(c1)C(=O)N(C)C[C@H](OC)[C@H](C)CN(Cc1ccccc1OC)[C@@H](C)CO2
 : i, 4.2, 0.1, 3.8, 0.7
COc1cc(C2CC(=O)Oc3cc(C)cc(C)c32)cc(OC)c1OC (centres undefined)
 : i, -0.6, -21.6*, -14.1*, 0.3*
COc1ccc(CN(C)C[C@@H]2Oc3c(NS(=O)(=O)c4c(C)noc4C)cccc3C(=O)N([C@@H](C)CO)C[C@@H]2C)cc1
 : i, -1.7, 4.3, 5.2, 2.7
COc1ccc(C(C)(NC(C)=O)c2nc(-c3cccnc3)cs2)cc1 (centres undefined)
 : i, 0.8, 9.2, 19.8, -0.3
C[C@H](CO)N1C[C@H](C)[C@H](CN(C)C)Oc2ccc(NS(=O)(=O)c3ccccc3)cc2CC1=O
 : i, -3.8, 1.6, 6.9, -1.5
Cc1ccc(NC(=O)Nc2ccc3c(c2)C(=O)N(C)[C@@H]2CC[C@@H](CC(=O)O)O[C@H]2CO3)cc1
 : i, -1.7, 1.8, -4.0, -1.0
O=C(N[C@@H]1CC[C@@H](CC(=O)N2CCc3ccccc3C2)O[C@H]1CO)C1CCOCC1
 : i, -15.1, -2.1, 4.1, -2.2
C[C@@H]1CN([C@@H](C)CO)C(=O)c2cccc(NC(=O)Nc3ccc(F)cc3)c2O[C@H]1CN(C)Cc1ccccc1
 : i, -2.9, -10.1, -19.3, 1.0
C[C@H](CO)N1C[C@H](C)[C@@H](CN(C)CC2CCOCC2)Oc2ncc(C#Cc3ccc(F)cc3)cc2C1=O
 : i, 9.2, 0.9, -0.6, 0.1
Cc1noc(C)c1S(=O)(=O)Nc1ccc2c(c1)CC(=O)N([C@@H](C)CO)C[C@H](C)[C@H](CN(C)Cc1ccccc1)O2
 : i, -1.0, -1.6, -1.3, 1.1
C[C@H](CO)N1C[C@H](C)[C@@H](CN(C)C(=O)NC2CCCC2)Oc2cc(-c3cccnc3)ccc2S1(=O)=O
 : i, -3.1, 0.2, 4.0, -1.9
Cc1noc(C)c1NC(=O)N(C)C[C@@H]1OCCCC[C@@H](C)Oc2ccc(NC(=O)C3CCCCC3)cc2C(=O)N([C@H](C)CO)C[C@@H]1C
 : i, -1.4, 6.6, 9.8, -1.0
C#CCOCCOCCOCCNc1nc(N2CCN(C(=O)[C@H]([C@@H](C)CC)n3cc(CCCN=C(N)N)nn3)CC2)nc(N2CCN(C(=O)[C@H]([C@@H](C)CC)n3cc(CCC(=O)O)nn3)CC2)n1
 : i, -18.9, 0.2, 5.6, -3.9
O=C(NCC[C@@H]1CC[C@@H](NC(=O)C2CCC2)[C@H](CO)O1)c1cnccn1
 : i, -2.8, 2.6, 9.3, 0.0
COc1ccc2c3c([nH]c2c1)[C@H](CO)N(Cc1ccccc1)CC31CCN(S(C)(=O)=O)CC1
 : i, -3.9, 1.2, 7.2, 3.5
COc1ccc(-c2cnc3c(c2)C(=O)N([C@@H](C)CO)C[C@@H](C)[C@H](CN(C)C(=O)C2CCOCC2)O3)cc1
 : ?, -1.6, -0.8, -1.3, -1.0
CC(C)NC(=O)Nc1cccc2c1O[C@H](CN(C)Cc1ccncc1)[C@@H](C)CN([C@H](C)CO)C2=O
 : i, -1.3, -0.9, 2.0, -4.9
CCN1[C@@H]2Cn3c(ccc(C4=CCCCC4)c3=O)[C@H]1[C@@H](C(=O)N1CCOCC1)[C@@H]2CO
 : i, 0.5, 2.2, 0.1, -0.4
C[C@H]1CN([C@@H](C)CO)C(=O)c2cccc(NC(=O)C3CCCCC3)c2O[C@@H]1CN(C)S(=O)(=O)c1ccc(F)cc1
 : i, -0.5, -1.5, -0.5, 1.2
O=C(C[C@H]1C[C@H]2c3cc(NC(=O)c4cccnc4)ccc3O[C@H]2[C@H](CO)O1)NCC1CC1
 : i, 0.4, 1.9, 8.2, 0.2
O=C(CC1CC1)Nc1ccc2c(c1)[C@@H]1C[C@H](CC(=O)NC3CCCC3)O[C@H](CO)[C@@H]1O2
 : i, -2.2, 1.9, 17.3, -1.2
CC(C)NC(=O)N(C)C[C@@H]1Oc2ccc(NS(=O)(=O)c3ccc(Cl)cc3)cc2C(=O)N([C@@H](C)CO)C[C@H]1C
 : i, -2.4, 2.6, 0.3, -1.9
C[C@H](CO)N1C[C@H](C)[C@@H](CN(C)Cc2ccc(C(=O)Nc3ccccc3N)cc2)Oc2ccc(NS(=O)(=O)c3cccs3)cc2CC1=O
 : i, 1.1, -3.2, -2.3, -1.7
CC(=O)N(C)C[C@@H]1Oc2ncc(-c3cccc(C#N)c3)cc2C(=O)N([C@H](C)CO)C[C@H]1C
 : i, -1.1, 2.3, 8.4, -0.7
C[C@H](CO)N1C[C@H](C)[C@@H](CN(C)Cc2ccc(-c3ccccc3)cc2)Oc2ccc(NC(=O)Nc3ccc(F)cc3)cc2C1=O
 : i, 4.9, 2.2, 7.2, 3.0

Profiles from above. Screens in order: FGF22 binding, MLL AF4-AF9 inh, Ecoli rRNA inh, Ecoli rRNA inh OD600, Ecoli rRNA inh RFP
Shown for `Cc1noc(C)c1NC(=O)N(C)C[C@@H]1OCCCC[C@@H](C)Oc2ccc(NC(=O)C3CCCCC3)cc2C(=O)N([C@H](C)CO)C[C@@H]1C` → i, -1.4, 6.6, 9.8, -1.0
Shown for `C[C@H](CO)N1C[C@H](C)[C@@H](CN(C)Cc2ccc(-c3ccccc3)cc2)Oc2ccc(NC(=O)Nc3ccc(F)cc3)cc2C1=O` → i, 4.9, 2.2, 7.2, 3.0
Shown for `CCN1[C@@H]2Cn3c(ccc(C4=CCCCC4)c3=O)[C@H]1[C@@H](C(=O)N1CCOCC1)[C@@H]2CO` → i, 0.5, 2.2, 0.1, -0.4
Shown for `CCCC#Cc1cnc2c(c1)C(=O)N([C@@H](C)CO)C[C@@H](C)[C@H](CN(C)Cc1cccnc1)O2` → i, 2.0, -0.5, -2.8, 0.3
Shown for `COc1ccc(CN(C)C[C@@H]2Oc3c(NS(=O)(=O)c4c(C)noc4C)cccc3C(=O)N([C@@H](C)CO)C[C@@H]2C)cc1` → i, -1.7, 4.3, 5.2, 2.7

(continued)
Every second line gives: FGF22 binding, MLL AF4-AF9 inh, Ecoli rRNA inh, Ecoli rRNA inh OD600, Ecoli rRNA inh RFP
C[C@@H]1CN([C@H](C)CO)C(=O)c2cccc(NS(=O)(=O)c3cccs3)c2O[C@H]1CN(C)Cc1ccc(Cl)c(Cl)c1
 : i, -0.2, 1.1, 1.9, 2.2
COc1ccc(S(=O)(=O)Nc2ccc3c(c2)C(=O)N([C@@H](C)CO)C[C@@H](C)[C@@H](CN(C)Cc2ccncc2)OCCCC[C@@H](C)O3)cc1
 : i, 1.7, -6.9, -8.7, -0.2
C[C@@H]1CN([C@H](C)CO)C(=O)c2cc(NC(=O)CCN3CCOCC3)ccc2O[C@@H]1CN(C)Cc1ccc(Oc2ccccc2)cc1
 : i, 9.8, 3.0, 2.6, -0.4
CNC[C@@H]1Oc2ccc(NS(=O)(=O)c3ccc(Cl)cc3)cc2CC(=O)N([C@H](C)CO)C[C@H]1C
 : i, -2.2, 3.0, 10.3, -3.3
CC(=O)NC(c1ccccc1)c1nc(-c2cnc3ccccc3c2)cs1 (centres undefined)
 : i, -2.0, 1.0, 12.0, -8.8
O=S(=O)(c1ccccc1)N1C[C@@H]2[C@H](c3ccccc31)[C@@H](CO)N2Cc1ccccc1
 : i, 1.6, -17.9, -18.6, -3.9
COc1ccc(S(=O)(=O)N(C)C[C@@H]2Oc3ccc(NC(=O)c4ccncc4)cc3C(=O)N([C@H](C)CO)C[C@@H]2C)cc1
 : i, -0.6, -1.4, 5.6, 0.3
C[C@H]1CN([C@@H](C)CO)C(=O)c2cccc(NC(=O)Nc3ccc(F)cc3)c2O[C@H]1CN(C)CC1CCCCC1
 : i, 0.9, 0.5, -4.0, -2.3
COc1ccc(NC(=O)N(C)C[C@@H]2Oc3ccc(NS(=O)(=O)c4ccc(Cl)cc4)cc3C(=O)N([C@H](C)CO)C[C@@H]2C)cc1
 : i, -3.4, -1.9, -3.8, 4.5
CN(C)C(=O)c1cccc(-c2ccc3n(c2=O)C[C@@H]2[C@@H](CO)[C@H](C(=O)NCC4CC4)N[C@H]32)c1
 : i, -0.5, -0.9, -1.3, 0.5
CO[C@@H]1CN(C)C(=O)c2cc(NC(=O)Nc3ccccc3F)ccc2OC[C@@H](C)N(C(=O)Nc2ccccc2F)C[C@H]1C
 : i, 2.8, 1.8, -1.5, 5.1
COc1ccc(-c2cnc3c(c2)C(=O)N([C@H](C)CO)C[C@H](C)[C@H](CN(C)S(C)(=O)=O)O3)cc1
 : i, -4.5&-9.2, 2.4, 6.7, -2.6
CC(C)c1ccc(C(=O)OCC(=O)Nc2cccc(S(=O)(=O)NC3=NCCC3)c2)cc1
 : i, -2.5, -1.0, -5.8, -1.5
CO[C@H]1CN(C)C(=O)c2ccc(NC(=O)c3ccc(F)cc3)cc2OC[C@@H](C)N(C(=O)c2ccc(F)cc2)C[C@@H]1C
 : i, -3.5, -6.1, -6.5, 3.6
O=C(C[C@@H]1CC[C@@H]2[C@H](COC[C@H](O)CN2Cc2ccncc2)O1)NCC1CC1
 : i, -3.5, 2.1, -4.6, -5.0
C=CC(=O)Nc1cccc(Oc2ccnc(Nc3ccc(N4CCN(C)CC4)cc3)n2)c1
 : i, 70.1*, -2.8, 13.5, 4.7
CO[C@@H]1CN(C)C(=O)c2ccc(NS(C)(=O)=O)cc2OC[C@H](C)N(C(=O)NC(C)C)C[C@@H]1C
 : i, -1.3, -1.8, -1.1, -2.0
CN1C(=O)c2cc(NC(=O)c3cccc(F)c3)ccc2OC[C@@H]2O[C@@H](CC(=O)N3CCc4ccccc4C3)CC[C@@H]21
 : i, 1.2, -10.0, -8.6, 1.7
COc1ccc(NC(=O)Nc2ccc3c(c2)C(=O)N([C@@H](C)CO)C[C@@H](C)[C@@H](CN(C)Cc2ccncc2)O3)cc1
 : i, -8.0, -1.3, -3.8, -1.3
O=C(c1ccccc1)N1CC(=O)N2[C@H](C1)[C@@H](c1ccc(C#CC3CC3)cc1)[C@@H]2CO
 : +, 2.2, 5.4, -5.0, -0.2
CCC(=O)N(C)C[C@H]1Oc2ncc(C#CC(C)C)cc2C(=O)N([C@@H](C)CO)C[C@H]1C
 : i, -3.9, 5.8, 9.0, -4.0
N=C1N(c2ccccc2)C(=S)C(=Nc2ccccc2)N1c1ccccc1
 : i, 3.5, -0.9, 7.5, -3.0
O=S(=O)(Cc1ccccc1)N1CCCCN2[C@H](CO)[C@H](c3ccc(C#Cc4ccccc4)cc3)[C@H]2C1
 : i, 3.9, -1.1, 7.5, -2.7
CC1(C(=O)NCc2ccccc2)CN(S(C)(=O)=O)CC(=O)N1CCc1ccccc1F (centres undefined)
 : i, -0.9, 0.4, 0.9, -3.6
Cc1ccc(S(=O)(=O)Nc2ccc3c(c2)C(=O)N([C@H](C)CO)C[C@H](C)[C@H](CN(C)S(=O)(=O)c2cccs2)OCCCC[C@@H](C)O3)cc1
 : i, -0.8, 1.6, 3.9, -2.9
O=C(C[C@H]1C[C@@H]2c3cc(NC(=O)C4CCOCC4)ccc3O[C@@H]2[C@@H](CO)O1)NCc1ccccn1
 : i, 0.7, 2.2, 6.6, -2.6
CN(C)C(=O)c1ccc(-c2ccc([C@@H]3[C@H](CO)N4CCCCN(CC5CCOCC5)C[C@@H]34)cc2)cc1
 : i, -1.3, -1.7, 5.0, -0.8
COc1ccc(NC(=O)N(C)C[C@@H]2OCCCC[C@H](C)Oc3ccc(NC(=O)Nc4ccc(C(F)(F)F)cc4)cc3C(=O)N([C@@H](C)CO)C[C@H]2C)cc1
 : i, -1.1, -0.9, 3.6, -3.3
Cc1noc(C)c1S(=O)(=O)Nc1ccc2c(c1)C(=O)N([C@@H](C)CO)C[C@H](C)[C@H](CN(C)C(=O)Nc1ccc3c(c1)OCO3)OCCCC[C@H](C)O2
 : i, 2.9, -1.7, -1.1, 0.6
C[C@@H]1CN([C@H](C)CO)C(=O)c2cc(NS(C)(=O)=O)ccc2O[C@@H](C)CCCCO[C@H]1CN(C)S(=O)(=O)c1ccc(Cl)cc1
 : i, 1.3, -2.2, 0.3, 1.9
O=C(NCC[C@@H]1CC[C@H](NS(=O)(=O)c2ccccc2)[C@@H](CO)O1)c1ccccc1F
 : i, 1.3, 0.0, 0.5, -1.8
